# Compound activity (PubChem BioAssay)
# Rango release inh: prevents RanGTP from dissociating the Rango-importin beta complex; Potency, µM (doses to about 46.1 µM), without a hit: at the highest dose activity change, negative = inhibition; AID 540253; Biochemical FRET Rango-importin beta, RanGTP-induced dissociation; hit rate 0.071% among 340,000; active means falling FRET ratio curve, often poorly fitted, with flat reads before Ran was added; inconclusive means other falling curves, or compound fluorescence or quenching; inactive means flat or rising ratio curve;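 note: potency is the fitted concentration of half-maximal effect; % of control where 0% means no effect; nearly all actives have a fitted effect of over 45% in size; -100% = wells without RanGTP and RCC1; the record marks most hits as doubtful in a second field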
#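 Recombinant Rango FRET biosensor (EYFP–snurportin 1 IBB–cerulean CFP10) at 0.1 uM premixed with 0.25 uM importin beta in PBS, 1 mM DTT, 0.02% Tween-20, 0.1% BSA. Compound added 5 min; RanGTP-RCC1 (0.6 uM Ran, 2 mM GTP, 0.2 uM RCC1) then triggers release, read at 45 min.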
# GLA inh pH 4.5: blocks human alpha-galactosidase A at pH 4.5; P06280; purified enzyme, 4-MU-alpha-Gal fluorescence, pH 4.5; activity change, negative = inhibition, % at 105 µM; 230,000 tested, under 10 active; AID 1467; inconclusive = small, poorly fitted or top-dose-only inhibition, or a rising curve; inactive = flat fitted curve, though single readings scatter; no compound was filed as active;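 note: 0% = full activity with enzyme and -100% = basal without enzyme; dose as in the result columns while the protocol names 77 µM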
# miR-21 reporter: raises the signal of a miR-21 reporter | HeLa miR-21 FLuc reporter, luciferase, 48 h | Potency, µM (doses to about 38.3 µM), for inactives: at the top dose reporter change, positive = more light | 340,000 tested, under 10 active; active = well fitted rising curve with a large enough effect; inconclusive = small, poorly fitted or top-dose-only effect; inactive = no such curve, though single readings can be large or run the other way;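 note: % of control where 0% means no effect; miR-21 action dims this reporter so a rising signal means less miR-21 action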
#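 HeLa miR-21-FLuc reporter line, endogenous miR-21; 2000 cells/well in DMEM/10% FBS; compound titration up to ~40uM final, 48 h, 37 degree Celsius; luciferase detection reagent, 15 min lysis, CCD luminescence.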
# Rango-impB inh: Rango-importin beta binding inhibition | Q14974 | Rango CFP/YFP FRET sensor + importin beta, 45 min | Potency, µM (titrated, usually from 92.2 µM), inactives show at the top dose inhibition of complex formation | hit rate 0.031% among 340,000 | AID 540263; active = rising FRET ratio curve, often small or poorly fitted; inconclusive = mostly compound fluorescence or quenching in the first reads; inactive = flat curves in all reads;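 note: potency is the fitted concentration of half-maximal effect; 0% = DMSO wells and 100% = buffer wells lacking importin beta; nearly all actives have a fitted effect of over 15% in size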
# Target sequence (Q14974 whole entry, looked up): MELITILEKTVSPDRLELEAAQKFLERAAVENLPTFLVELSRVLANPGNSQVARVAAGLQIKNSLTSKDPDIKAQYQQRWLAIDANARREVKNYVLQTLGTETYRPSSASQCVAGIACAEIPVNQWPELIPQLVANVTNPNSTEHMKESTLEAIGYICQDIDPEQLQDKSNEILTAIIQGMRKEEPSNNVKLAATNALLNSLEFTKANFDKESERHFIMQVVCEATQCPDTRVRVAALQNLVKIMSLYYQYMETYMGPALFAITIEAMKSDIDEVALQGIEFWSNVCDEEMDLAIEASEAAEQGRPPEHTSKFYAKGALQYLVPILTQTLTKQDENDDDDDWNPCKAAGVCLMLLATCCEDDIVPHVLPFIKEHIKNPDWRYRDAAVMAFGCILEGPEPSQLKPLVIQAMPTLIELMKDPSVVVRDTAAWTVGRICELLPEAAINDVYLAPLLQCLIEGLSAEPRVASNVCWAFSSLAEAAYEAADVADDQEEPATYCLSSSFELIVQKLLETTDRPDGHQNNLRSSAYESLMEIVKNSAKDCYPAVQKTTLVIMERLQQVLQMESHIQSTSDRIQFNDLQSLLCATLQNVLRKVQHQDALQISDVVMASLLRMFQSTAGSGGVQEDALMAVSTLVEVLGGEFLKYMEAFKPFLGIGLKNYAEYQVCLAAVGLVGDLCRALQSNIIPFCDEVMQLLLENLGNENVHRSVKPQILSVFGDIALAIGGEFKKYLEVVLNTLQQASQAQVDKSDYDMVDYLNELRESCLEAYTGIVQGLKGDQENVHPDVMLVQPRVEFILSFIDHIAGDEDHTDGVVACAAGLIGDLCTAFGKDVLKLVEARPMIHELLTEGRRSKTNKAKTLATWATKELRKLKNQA
#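 FRET biosensor Rango (snurportin 1 IBB between N-terminal EYFP and C-terminal Cerulean), 50 nM in PBS/1 mM DTT/0.02% Tween-20/0.1% BSA, preincubated 5 min RT with compound; 0.125 microM importin beta added, 45 min RT, CFP/YFP FRET ratio read.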
# The depositor's hits bear a star; ? = inconclusive; . = not tested or not shown.
SMILES,Rango release inh,GLA inh pH 4.5,miR-21 reporter,Rango-impB inh
COc1ccc(C2=NOC(C(=O)NC3CCCCC3)C2)cc1OC (stereo not given),-5.9%,-4.7,-7.0%,3.7%
O=C(NCc1ccc(F)cc1)c1cccs1,-19.8%,.,-0.9%,-1.7%
Cc1ccc(S(=O)(=O)N2CCCCC2)c(C)c1NS(C)(=O)=O,7.6%,8.0,3.1%,0.0%
CC(C)N1C(=O)N(c2ccc(Cl)cc2)C(C)(O)CC1(C)C (stereo not given),-17.1%,.,-5.0%,-1.7%
Cc1nnsc1C(=O)N1CCN(c2ccc(F)cc2)CC1,-6.5%,-2.4,-3.4%,1.4%
CC(=O)N1CN(C2CC(C)(C)NC(C)(C)C2)Cc2c1sc1c2CCCC1,-0.3%,-5.3,-5.4%,1.6%
O=C(Nc1nc(-c2ccccc2)cs1)c1ccc(Br)o1,-3.6%,-5.9,-27.0%,1.3%
NS(=O)(=O)c1ccc(CNC(=S)NC(=O)c2ccco2)cc1,-2.6%,.,.,-0.8%
CCCn1c(C)c(C(=O)OCC)c(O)c(-c2ccccc2)c1=O,3.9%,.,.,2.4%
Cc1ccc(CN2CCN(/N=C\C(Br)=C\c3ccccc3)CC2)cc1,-5.4%,-6.9,4.0%,1.4%
C=CCn1c(N)cc(=O)nc1SCC(=O)Nc1ccc(C(=O)OCC)cc1,3.2%,.,-0.2%,-5.2%
CN1CCC(n2[nH]c(-c3ccccc3)c(Cc3ccccc3)c2=O)CC1,0.0%,.,.,-3.0%
Cc1cc(-c2c(C)[nH]n(-c3ccccc3)c2=O)n[nH]1,3.1%,7.5,-10.7%,0.7%
COC(=O)c1nc2ccccn2c1F,1.9%,4.1,-0.1%,1.2%
Nn1c(Cc2ccccc2F)nnc1SCC(=O)Nc1cccc(S(=O)(=O)NC2=NCCCCC2)c1,1.6%,-0.7,-1.2%,?
Cc1ccc(N2CC(C(=O)NCc3n[nH]c(=O)c4ccccc34)CC2=O)cc1 (stereo not given),-13.1%,.,.,3.3%
CC(C)(C)NC(=O)C(c1ccccn1)N(C(=O)C1CSC(=O)C1)c1ccc(F)cc1 (stereo not given),-4.2%,4.5,-2.9%,-0.8%
CC1CCc2[nH]c3ccc(C(=O)N(C)CC(=O)Nc4ccccc4Br)cc3c2C1 (stereo not given),-1.0%,.,.,?
Cc1ccc(Nc2ncnc(N)n2)cc1C,?,-13.2,-57.3%,1.2%
CCOC(=O)C1CC=C(Cl)CC1C(=O)Nc1nccs1 (stereo not given),13.9%,-4.2,1.1%,-5.0%
CSc1ncc(C(=O)O)n1-c1ccc(F)cc1,1.4%,-0.8,-1.7%,2.0%
Cc1cccc(N2C(=O)CC(N(O)c3ccccc3)C2=O)c1 (stereo not given),11.9%,2.5,-30.4%,2.7%
CO/N=C/C(=N\Nc1cc(OC)cc(OC)c1)C(=O)c1ccccc1,-4.6%,1.8,9.6%,-1.1%
COc1ccc(S(=O)(=O)NC2CC(C)(C)NC(C)(C)C2)c2ccccc12,8.2%,.,-3.2%,0.2%
CCC(Sc1nc(N)cc(=O)[nH]1)C(=O)Nc1cc(C)on1 (stereo not given),9.4%,-3.3,0.2%,0.7%

# Compounds listed so far that contain an NH in an aromatic ring, in the order listed:
SMILES,Rango release inh,GLA inh pH 4.5,miR-21 reporter,Rango-impB inh
CN1CCC(n2[nH]c(-c3ccccc3)c(Cc3ccccc3)c2=O)CC1,0.0%,.,.,-3.0%
Cc1cc(-c2c(C)[nH]n(-c3ccccc3)c2=O)n[nH]1,3.1%,7.5,-10.7%,0.7%
Cc1ccc(N2CC(C(=O)NCc3n[nH]c(=O)c4ccccc34)CC2=O)cc1 (stereo not given),-13.1%,.,.,3.3%
CC1CCc2[nH]c3ccc(C(=O)N(C)CC(=O)Nc4ccccc4Br)cc3c2C1 (stereo not given),-1.0%,.,.,?
CCC(Sc1nc(N)cc(=O)[nH]1)C(=O)Nc1cc(C)on1 (stereo not given),9.4%,-3.3,0.2%,0.7%

# Other records follow:
SMILES,Rango release inh,GLA inh pH 4.5,miR-21 reporter,Rango-impB inh
COC(=O)c1ccc(Cn2nc([N+](=O)[O-])c(Br)c2C)cc1,5.5%,16.0,-10.5%,-3.6%
CCCc1nc(SCC(=O)c2ccc3c(c2)NC(=O)CO3)[nH]c(=O)c1CC,3.0%,.,.,5.1%
Cc1ccc(CNc2nc3ccccc3n2C)o1,-0.6%,.,-52.2%,-1.8%
Cc1cccc(NC(=O)CSc2nnc(-c3ccccc3)n2N)c1,-2.2%,-4.3,-17.3%,-1.2%
COc1ccccc1S(=O)(=O)N1CCC(C(=O)O)(c2ccccc2)CC1,0.8%,.,-6.0%,-1.2%
CC(=O)c1ccc(S(=O)(=O)Oc2ccc(-c3ccc(C(=O)O)cc3)cc2)cc1,8.0%,.,6.4%,-1.1%
COC(=O)CCN(C(C)=O)c1ccc(N)cc1,-2.7%,-15.1,1.3%,0.4%
COCCn1c(SCC(=O)c2c(N)n(C3CC3)c(=O)[nH]c2=O)nc2ccccc21,-0.7%,.,.,-3.2%
COCCNC(=O)c1ccc2c(c1)C(=O)c1ccccc1-2,4.9%,.,-18.0%,?
COCCOC(=O)C1=C(C)NC(=O)NC1c1ccc(-c2ccc(F)cc2)o1 (stereo not given),?,2.1,-14.3%,?
Cc1ccc(N(CC(=O)NCc2ccccn2)S(=O)(=O)c2ccccc2)cc1C,-9.1%,.,-2.6%,4.6%
Cc1ccc(C(=O)NCC(=O)OCN2C(=O)c3ccccc3C2=O)cc1C,-3.0%,.,.,3.8%
N#Cc1c2c(c(-c3ccccc3Cl)[nH]c1=S)CCCC2,11.4%,6.0,-6.7%,-0.1%
CCOC(=O)c1ccc(NC(=S)N2CCN(CCN=CC3=C(O)CC(C)(C)CC3=O)CC2)cc1,-0.4%,-3.0,-2.5%,0.1%
CN(C)C1(CNC(=S)Nc2ccccc2C(F)(F)F)CCCCC1,2.7%,-1.5,-6.5%,-1.2%
Cc1nc(Cl)cc(N/N=C/c2ccccc2)n1,-7.7%,.,-38.7%,6.6%
FC(F)Oc1ccc(-n2cc(-c3ccccc3)[n+]3c2CCCCC3)cc1,0.2%,-0.3,19.8%,3.3%
O=C(O)c1ccccc1NC1CCCCC1NS(=O)(=O)c1ccccc1 (stereo not given),11.4%,.,2.2%,2.7%
CN(C)c1ccc(/C=N/NC(=O)c2ccccc2)cc1,-15.2%,-6.8,-26.3%,?
O=C(c1ccco1)N1CCN(c2ccc([N+](=O)[O-])c(N3CCOCC3)c2)CC1,2.8%,-4.1,-0.1%,-3.9%
CCN(CC)S(=O)(=O)c1ccc(F)c(C(=O)OC2CC(C)OC2=O)c1 (stereo not given),-19.9%,.,-0.2%,0.6%
CC(/C=N/NC(=O)c1nnn(-c2nonc2N)c1CN1CCCCC1)=C\c1ccccc1,-8.7%,.,-0.4%,-1.5%
Cc1ccc(NC(=O)c2ccc(Nc3c([N+](=O)[O-])cc([N+](=O)[O-])cc3[N+](=O)[O-])cc2)cc1,5.9%,-5.7,?,-0.3%
CC(=O)NC1C(Oc2ccccc2C)OC(CO)C(O)C1O (stereo not given),7.9%,4.0,0.2%,?
CCCN(CCC)S(=O)(=O)c1ccc(C(=O)Nc2c(C)n(C)n(-c3ccccc3)c2=O)cc1,-2.6%,-0.3,-1.1%,0.6%
SMILES,Rango release inh,GLA inh pH 4.5,miR-21 reporter,Rango-impB inh
CC1CCc2c(sc3ncnc(SCC(=O)c4ccccc4)c23)C1 (stereo not given),-10.1%,-0.9,-9.4%,-4.6%
CC(Sc1n[nH]c(-c2ccccc2)n1)C(=O)c1c(N)n(C)c(=O)n(C)c1=O (stereo not given),11.9%,.,.,2.6%
Clc1ccc(-c2nc3cnccn3c2Nc2ccc3c(c2)OCO3)cc1,-1.5%,-1.1,8.8%,?
CC1(C)CCC[C@]2(C)[C@H]3Cc4cc(O)ccc4O[C@]3(C)CC[C@@H]12,4.1%,.,.,-0.5%
C=CCNc1nc(-c2ccccc2)c(C(=O)OCC)cc1C#N,-16.7%,?,22.7%,3.3%
Cc1nc2cc3c(cc2c(C)c1C(=O)OC(C)C)OCO3,5.6%,6.4,-38.0%,?
CCN1C(=O)CSC1=NC1C2CC3CC(C2)CC1C3 (stereo not given),-0.3%,-9.0,-4.6%,-1.4%
O=C(NNC(=O)c1cc2ccccc2cc1O)NC1CCCCC1,?,.,-19.4%,0.6%
Fc1ccc(COc2ccc(Br)cc2CNCC2CCCO2)cc1 (stereo not given),13.6%,-12.2,-3.7%,2.0%
O=C(NCCN1CCCCC1)Nc1cccc(C(F)(F)F)c1,11.8%,.,-17.6%,-1.4%
O=S1(=O)CC(NCc2ccccc2)C(Nc2ccccc2)C1 (stereo not given),-9.3%,-1.2,0.6%,1.0%
C[C@H](CO)N1C[C@H](C)[C@@H](CN(C)S(C)(=O)=O)Oc2ccc(NC(=O)C3CC3)cc2C1=O,-5.1%,.,.,4.4%
C=CCN1C(=O)/C(=C\C(C)=C\c2ccccc2)SC1=S,0.8%,.,-3.1%,1.7%
COc1cc(NC(=O)COc2cccc(C)c2C)ccc1NC(=O)c1ccco1,1.9%,.,-1.8%,-1.4%
CC(C)CCN1CCN(Cc2cccn2-c2ccccn2)CC1CCO (stereo not given),-14.8%,3.5,-2.3%,-3.3%
CN(C(=O)Cn1c(=O)oc2cc(S(=O)(=O)N3CCCC3)ccc21)C1CCCCC1,-1.5%,.,-1.1%,0.3%
COc1ccc(-c2[nH]c(-c3cccc(OC)c3)nc2SCC(=O)NC2CCCC2)cc1,0.6%,7.7,?,-0.1%
CN1C[C@@H]2[C@@H]3C(=O)N(C)C(=O)[C@@H]3[C@](Cc3ccccc3)(C1=O)N2C(=O)c1ccc(F)cc1,-8.4%,.,.,1.8%
CN(C)c1cccc2c1c(NS(=O)(=O)c1cn(C)cn1)nn2C,-0.6%,.,0.2%,2.1%
COC(=O)c1cc(NC(=O)C2COc3ccccc3O2)cc(C(=O)OC)c1 (stereo not given),25.2%,-4.7,9.3%,3.6%
Cc1ccc(C(=O)Nc2cccc(-c3cn4ccccc4n3)c2)cc1,-1.5%,-1.7,-18.5%,?
Cc1ccc(SC[C@H](c2ccccc2)N2CCN(C)CCC2=O)cc1,-21.3%,-2.1,-66.6%,-3.9%
COC(=O)c1cccc(Cn2c(Cl)c(/C=N/Nc3ccccc3C)sc2=O)c1,-8.7%,-8.9,18.6%,-0.1%
CCC(=O)Oc1ccc(C(CC)C(CC)c2ccc(OC(=O)CC)cc2)cc1 (stereo not given),-12.4%,-4.3,0.9%,-1.4%
CCOC(=O)c1cccc(S(=O)(=O)N2CCCC2)c1,1.6%,4.7,-13.7%,3.4%
SMILES,Rango release inh,GLA inh pH 4.5,miR-21 reporter,Rango-impB inh
CCNC(=S)N(CCc1c(C)[nH]c2ccc(F)cc12)Cc1cccnc1,19.0%,.,-5.0%,-0.1%
Cc1cc(NCCCn2ccnc2)n2nc(-c3ccc(Cl)cc3)cc2n1,-7.4%,6.0,-43.8%,?
O=C(Nc1ccc(N2CCCC2)cc1)c1cccc(-c2cc3ccccc3oc2=O)c1,-3.6%,-11.0,-23.8%,-2.4%
Cc1nc([N+](=O)[O-])c(SCC(O)CCl)n1Cc1ccc(Cl)cc1 (stereo not given),?,7.6,-2.4%,-1.7%
COc1ccccc1NC(=S)N(CCCN(C)C)Cc1cc2cc3c(cc2[nH]c1=O)OCO3,-13.0%,7.3,-15.5%,-2.1%
Cc1cc2ccccn2c1C(C[N+](=O)[O-])c1ccc(N(C)C)cc1 (stereo not given),19.5%,-0.4,-3.9%,?
CC(C(=O)Nc1ccccc1)N1CCN(C(=O)c2ccco2)CC1 (stereo not given),-13.7%,.,.,-1.7%
Cc1cc(N)n(-c2ccc3ccccc3c2)n1,1.2%,7.8,-33.2%,4.1%
Cc1sc2ncnc(N3CCC(C(=O)Nc4nnc(SCc5ccccc5F)s4)CC3)c2c1C,0.5%,.,.,0.6%

# Only part of the results is shown; rates above refer to the full screens.
